CBX7 inh – CBX7 chromodomain binding inhibitors, primary screen, biochemical, AlphaScreen | Chromobox protein homolog 7 (Homo sapiens), O95931 | AlphaScreen His6-CBX7 / biotin-H3K27me3 peptide binding; hits give low values | normalised signal (fraction of DMSO) (no concentration beside the values) | actives 1.1% (n = 66,000) | AID 1224903, 2016; in the data active = normalised signal below about 0.5;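 also: 100 nL library stock added to about 20 µL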
Target sequence (O95931 whole entry, looked up): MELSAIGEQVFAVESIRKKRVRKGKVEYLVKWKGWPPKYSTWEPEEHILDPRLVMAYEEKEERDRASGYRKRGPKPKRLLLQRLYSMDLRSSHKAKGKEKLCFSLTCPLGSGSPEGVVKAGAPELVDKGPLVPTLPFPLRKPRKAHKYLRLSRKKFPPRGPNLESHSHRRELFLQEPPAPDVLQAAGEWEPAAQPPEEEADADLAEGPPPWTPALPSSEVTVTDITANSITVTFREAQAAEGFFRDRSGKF
CBX7 inh z-score – second read-out of CBX7 inh, no call of its own (marks repeat the call); z-score; measured here: z-score of CBX7 signal; some inactives read as strong as hits; reference of the scale not given here;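 same signal on another scale; lower means less binding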
The depositor's hits bear a star; & = joins results of further samples. An excerpt. The share of hits here may be higher or lower than overall.

Values in the order – CBX7 inh	CBX7 inh z-score
COc1ccc(Nc2nc(-c3cccc(C)c3)nc3ccccc23)c(OC)c1
    1.6	17
O=C(c1ccccc1)N1CCN(CC(O)Cn2c3ccccc3c3ccccc32)CC1 (configuration not stated)
    0.99	-0.31
COc1ccc(NC(=O)c2c(NC(=O)c3cccs3)sc3c2CCC3)cc1
    1.2	2.1
CC(=O)c1c(C)n(CCO)c2ccc(O)cc12
    1.3	0.6
CC1CCN(S(=O)(=O)c2ccc(C(=O)Nc3ccccc3-c3nc4ccccc4o3)cc2)CC1
    1.2	4.1
CC(=O)NC(C(=O)Nc1cccc(Cl)c1)c1ccc(Cl)cc1 (configuration not stated)
    1	0.46
CCN(CC)CCOC(=O)c1ccc(NC(=O)Cc2c(C(=O)O)[nH]c3ccc(Cl)cc23)cc1
    0.99	-0.46
COc1ccc(Nc2nc(-c3ccccc3O)nc3ccccc23)c(OC)c1
    1	0.014
COc1cc(C2Nc3ccc4ncccc4c3C3=C2C(=O)CCC3)cc(OC)c1OC (configuration not stated)
    1	0.47
CCOC(CNC(=O)C1CCN(Cc2nc(-c3ccccc3F)oc2C)CC1)OCC
    1	0.25

(list continues)
Values in the order – CBX7 inh	CBX7 inh z-score
OCCN(CCO)CC(O)Cn1c2ccccc2c2ccccc21 (configuration not stated)
    0.88	-2
CCOC(=O)N1CCC(Nc2c(N3CCN(c4ccccc4OC)CC3)c(=O)c2=O)CC1
    1	0.61
CCn1cnc2cc(NCc3ccc(Cl)cc3)ccc21
    0.89	-2.6
CCC(C)Sc1oc(-c2ccc(F)cc2)nc1S(=O)(=O)c1ccccc1 (configuration not stated)
    0.98	-0.2
Cc1ccc(NC(=O)c2sc3ncn(Cc4ccccc4Cl)c(=O)c3c2C)cc1F
    1.2	1.4
Cc1ccc(CNC(=O)C(C)N2C(=O)COc3ccc(C)cc32)cc1 (configuration not stated)
    1	1.1
Cc1cccc(-c2nc3c(cnn3-c3ccccc3)c(=O)n2-c2cccc(Cl)c2)c1
    0.84	-6.3
COc1cccc(NC(=O)CSc2nc(NCc3ccc4c(c3)OCO4)c3ccccc3n2)c1
    1	0.14
CCc1ccc2oc(-c3cccc(NS(=O)(=O)c4ccccc4)c3)nc2c1
    1	1
Cc1oc(-c2ccc(Cl)cc2)nc1CN1CCC(C(=O)NCCCN2CC(C)CC(C)C2)CC1 (configuration not stated)
    1.8	7.2

Carrying on:
Values in the order – CBX7 inh	CBX7 inh z-score
CCN(CCNC(=O)C1CCCN(S(=O)(=O)CC)C1)c1ccccc1 (configuration not stated)
    1	1.1
CC1CCN(c2c(NCc3ccc(C(=O)NC4CCCC4)cc3)c(=O)c2=O)CC1
    1	0.56
Cc1ccc(NC(=O)CC2Sc3ccccc3NC2=O)c(Br)c1 (configuration not stated)
    1.3	2
O=C(Cn1nc(Cc2cccnc2)c2ccccc2c1=O)N1CCCCCC1
    1	0.38
Cc1ccccc1Cc1c(C)nc2c(C(=O)NC3CCCC3)cnn2c1C
    0.97	-0.73
O=C(NCC1CCCO1)c1cc2nc(-c3ccccc3)cc(C(F)(F)F)n2n1 (configuration not stated)
    1.2	2.7
COc1ccc(Nc2cc(C(=O)N(C)Cc3ccccc3)c3ccccc3n2)cc1
    0.93	-0.07
CCn1cc(C(=O)Nc2ccc(Oc3ccccc3)cc2)c2cc(OC)c(OC)cc2c1=O
    0.91	-2.4
COc1ccc(Nc2nc(-c3ccc(C)cc3)c(CC(=O)O)s2)cc1
    0.9	-1.6
Cc1cccc(C)c1OCC(O)CN1C(=O)NC(C)(C)C1=O (configuration not stated)
    0.97	-0.93

Continued:
Values in the order – CBX7 inh	CBX7 inh z-score
Cc1ccc(-n2c(C)nc3c(cnn3-c3ccccc3)c2=O)cc1
    1.1	1.4
COc1ccc(C(C(=O)NC2CCCCC2)N(C)c2ccccc2)cc1 (configuration not stated)
    1.1	0.75
Cc1c2cnn(CC(=O)N3CCN(Cc4ccccc4)CC3)c(=O)c2c(C)n1Cc1ccccc1
    1.2	1.8
Cc1ccc(N2CCN(C(=O)CCc3c(C)nc4ncnn4c3C)CC2)c(C)c1
    1	0.75
CC1(C)CC(CC(=O)N2CCOCC2)(c2ccccc2)CCO1 (configuration not stated)
    0.96	-0.34
CCC(=O)N1CCc2cc(S(=O)(=O)NC(CC(C)C)C(=O)NC(C)c3ccccc3)ccc21 (configuration not stated)
    1.1	2.7
Cc1cccc(CN2CCN(CC(=O)NCc3ccc(F)cc3)C2=O)c1
    1.1	1.8
COc1ccc(CCNc2nc(-c3ccc(F)cc3)cc(C(F)(F)F)n2)cc1OC
    1.1	1.5
O=c1nc(-c2ccccc2)c2cc(Br)ccc2[nH]1
    0.95&1.1	-0.54&1.5
COc1cccc(Nc2nc3ccccc3nc2NS(=O)(=O)c2ccccc2)c1
    1.1	1.9

Further entries:
Values in the order – CBX7 inh	CBX7 inh z-score
COc1ccc(-n2c(C)nc3c(cnn3-c3ccc(C)c(C)c3)c2=O)cc1
    0.86	-1.8
COC(CN(C)S(=O)(=O)c1ccc2c(c1)CCN2C(C)=O)OC
    0.97	-0.9
CC1CCCN(C(=O)Cc2c(C(=O)O)[nH]c3ccc(Cl)cc23)C1 (configuration not stated)
    0.98	-0.17
CC(NC(=O)CN1C(=O)COc2ccc(S(=O)(=O)N3CCCC3)cc21)c1ccc2c(c1)OCCO2 (configuration not stated)
    1.1	1
CCN1C(=O)c2ccccc2S(=O)(=O)c2ccc(C(=O)NCc3ccc(OC)cc3)cc21
    1	0.43
COc1ccccc1NC(=O)c1cc(-c2ccccc2)nc2c(C)cccc12
    0.76	-2.1
O=C(Nc1ccc(F)cc1)c1cn(-c2ccccc2)nc1-c1ccc(Cl)cc1
    0.97	-0.44
Cc1sc(Nc2cccc(Cl)c2)nc1-c1ccc(Cl)cc1
    0.93	-1.1
CCN1CCN(C(C(=O)NC2CCCC2)c2ccc(Cl)cc2)CC1 (configuration not stated)
    1.1	0.83
CCOc1ccc(C(=O)Nc2cccc(NC(=O)c3ccccc3)c2)cc1Br
    1	0.12

The list continues:
Values in the order – CBX7 inh	CBX7 inh z-score
CCC(=O)NC(C)C(c1cccs1)N1CCN(c2ccccc2)CC1 (configuration not stated)
    0.99	-0.058
Cc1cc(-c2csc(Nc3ccccn3)n2)ccc1F
    0.86	-1.7
Cc1cc(C)c(S(=O)(=O)Nc2cccc(-c3cn4ccccc4n3)c2)c(C)c1
    1	0.069
Cc1cccc(Nc2nc(C(F)(F)F)c(-c3ccc(Cl)cc3)s2)c1
    1.1	1.3
CCC1Oc2ccc(C)cc2N(CC(=O)NCCCN2CCOCC2)C1=O (configuration not stated)
    1.1	0.51
Cc1cccc(NC(=O)c2ccc(CNc3c(N4CCC(C)CC4)c(=O)c3=O)cc2)c1C
    1	1.2
CCCC1CCC(c2ccc(C(=O)Nc3cc(C)ccn3)cc2)CC1 (configuration not stated)
    1	1.2
CCCOc1cccc(C(=O)N(Cc2ccc(OC)c(OC)c2)C2CCS(=O)(=O)C2)c1 (configuration not stated)
    0.98	-0.02
CC(C)(C)c1nnc(NC(=O)c2ccccc2Cl)s1
    1.1	1.4
COc1ccccc1-c1cc(C(F)(F)F)nc(N2CCN(Cc3ccccc3)CC2)n1
    1.1	3.5

The results go on.
Values in the order – CBX7 inh	CBX7 inh z-score
CCOC(=O)C1CCN(c2c(N3CCN(c4cccc(C)c4)C(C)C3)c(=O)c2=O)CC1 (configuration not stated)
    1.1	1.6
O=C1CCCC2=C1C(c1ccccc1F)Nc1ccc3ncccc3c12 (configuration not stated)
    1.6	1.3
COc1ccc(CN2C(=O)CN(C3CCCCCC3)C(=O)C2c2ccc(OC)c(OC)c2)cc1 (configuration not stated)
    0.91	-0.87
COc1ccccc1NC(=O)COc1ccc2oc3c(c2c1)CCCC3
    0.97	-0.26
COC(=O)c1cn(-c2ccccc2)nc1-c1ccc(OC)c(OC)c1
    0.95	-1.1
CCCCNC(=O)c1c[nH]c2ccc(S(=O)(=O)Nc3cc(C)cc(C)c3)cc2c1=O
    1.1	1.9
O=C(CSc1nnc2ccccn12)Nc1nsc(-c2ccccc2)n1
    0.98	-0.83
O=C1c2cccnc2C(=O)N1c1ccc(-c2nnc(-c3ccccc3)o2)cc1
    0.95	-2
Cc1ccc2c(C)nc(Nc3nc4ccccc4c(=O)[nH]3)nc2c1
    0.6	-1.4
CC(C)C(=O)Nc1c2c(nn1-c1cccc(Cl)c1)CSC2
    1	0.86

The results go on.
Values in the order – CBX7 inh	CBX7 inh z-score
CS(=O)(=O)c1nc2ccccc2n1Cc1ccccc1F
    1	0.92
CC1CCN(c2nc3ccc(C(=O)NC4CCCCCC4)cc3s2)CC1
    0.95	-1
O=C(NC1CCN(Cc2ccccc2)CC1)C1CCCN(S(=O)(=O)c2cnc[nH]2)C1 (configuration not stated)
    1.1	2.3
Cc1ccc(C(=O)CSc2n[nH]c(-c3ccncc3)n2)cc1C
    0.8	-0.42
COC(CNC(=O)c1ccc2c(c1)N(Cc1ccccc1C)C(=O)c1ccccc1S2)OC
    0.79	-4
CCCCc1ccc(-c2nc(Nc3ccc(C(F)(F)F)cc3)c3ccccc3n2)cc1
    1.1	0.79
O=C(Nc1ccc2nc3n(c(=O)c2c1)CCCCC3)c1cncc(Br)c1
    1	0.52
COc1cccc(NC(=O)CCC(=O)Nc2ccc3nc(N4CC(C)CC(C)C4)cc(C)c3c2)c1 (configuration not stated)
    1.1	1.2
Brc1cccc(-c2nc(-c3cccnc3)no2)c1
    1	0.1
Cc1ccc2c(c1)NC(=O)C(CC(=O)NCCCN1CCCCC1)O2 (configuration not stated)
    1.1	2.4

Next part
Values in the order – CBX7 inh	CBX7 inh z-score
COc1ccc(NC(=O)C2CC(c3cccc(OC)c3OC)=NO2)cc1OC (configuration not stated)
    1	0.43
COc1ccc(C2NC(=O)c3c(sc4c3CCCC4)N2)c(OC)c1 (configuration not stated)
    0.91	-1.6
CC(=O)NC(C)Cc1cn(Cc2ccccc2)c2ccccc12 (configuration not stated)
    0.98	-0.76
Cc1ccc(NC(=O)C2CCN(Cc3cnn(-c4ccccc4)c3-n3cccc3)CC2)c(C)c1
    1	-0.21
Brc1ccc(-c2nc3ccccn3c2Sc2ccccc2)cc1
    0.89	-2
Oc1ccccc1-c1nc(N2CCOCC2)c2ccccc2n1
    1.2&0.88	1.3&-0.14
O=C(NCc1ccccn1)c1cc(Sc2cccc(Cl)c2)nc2ccccc12
    0.8	-0.42
Cc1ccc(Cn2nc(C)c(NC(=O)c3cc(-c4cccc(Cl)c4)on3)c2C)cc1
    0.94	-1.6
COc1ccc(Nc2c3c(nc4ccc(Cl)cc24)CCC3)cc1OC
    0.79	-0.29
CCc1ccc(Nc2cc(C(=O)N3CCCC3)c3ccccc3n2)cc1
    1.1	1.8

Continued:
Values in the order – CBX7 inh	CBX7 inh z-score
CCOc1ccc(-c2nnc(NC(=O)C(CC)c3ccccc3)s2)cc1 (configuration not stated)
    1	0.12
CCc1cc2c(=O)c(-c3nc4ccccc4s3)c(C)oc2cc1OC
    1.1	1.9
COCCNC(=O)CCc1nc2cccnc2n1Cc1ccc(OC)cc1
    0.97	-0.51
CCOc1ccc2nc(N3CCC(C(=O)Nc4cccc(OC)c4)CC3)sc2c1
    1	1.1
CCC1CCCCN1CCNS(=O)(=O)c1ccc2c(c1)CCN2C(=O)C1CCC1 (configuration not stated)
    0.99	-0.27
CCOC(=O)c1cnc2ccccc2c1Nc1ccc(OC)c(OC)c1
    0.93	-1.8
Cc1nc(Nc2ccc(Oc3ccc(Cl)cc3)cc2)c2c(C)c(C)sc2n1
    1.1	0.13
COc1ccc(CCN(C)CC(=O)Nc2c3c(nc4ccccc24)CCC3)cc1OC
    0.96	-0.84
COC(=O)c1ccc2c(c1)N(Cc1ccccc1)C(=O)CS2
    1.1	1.3
Cc1cccc(NC(=O)c2cnc3scc(C)n3c2=O)c1C
    1	0.68

(further entries)
Values in the order – CBX7 inh	CBX7 inh z-score
COc1ccc(Cl)cc1NC1c2ccccc2C(=O)N1Cc1ccccc1 (configuration not stated)
    0.53	-13
CCOc1ccc(S(=O)(=O)Nc2nc3ccccc3nc2Nc2ccc(OC)cc2)cc1
    0.77	-6.6
COc1ccc(N(CC(=O)Nc2ccccc2OC)S(=O)(=O)c2cccnc2)cc1
    1.1	0.66
COc1ccc(NC(=O)c2cc(-c3ccc(Cl)c(Cl)c3)nc3ccccc23)c(OC)c1
    1.1	0.48
O=C(O)c1cccc(Nc2nc(-c3ccccn3)cs2)c1
    0.15*	-17*
CCN1CCCC1CNC(=O)CCN1C(=O)COc2ccc(C)cc21 (configuration not stated)
    0.99	-0.14
Cc1ccc(N(CC(=O)Nc2ccc(Br)c(C)c2)S(=O)(=O)c2c(C)noc2C)cc1
    0.96	-0.36
COc1cccc(CNc2sc3c(c2C(=O)Nc2cc(OC)ccc2OC)CCCC3)c1
    0.77	-6.2
O=C(NCc1nnc(SCC(=O)N2CCCCC2)o1)c1ccccc1F
    0.86	-2.3
